Bioassay records from PubChem BioAssay.
LANA-H2B inh: blocks KSHV LANA binding to histone H2A/H2B | Q9QR71 | cell-free LANA-H2A/H2B peptide, fluorescence polarization | inhibition, % (concentration not given with the values) | 320,000 tested, 0.6% active | AID 2629; in the data active means inhibition mostly above about 10%, no sharp cut-off; inactive means mostly below about 6.7%;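 further: stock transfer was 7.5 nL into about 10 µL; 0% = median of vehicle wells and 100% = median of positive control wells; one replicate is shown; the record names a cut of 25% in any replicate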
A1 inh: inhibitors of the anti-apoptotic protein A1, read as caspase activation | caspase activation, % (no concentration beside the values) | AID 2462 | 330,000 tested, 0.066% active | MEF A1-2A-BIM cells, Caspase-Glo 3/7 luminescence, 3 h; percent of clofoctol response, vehicle zero;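 active means over half of replicate activation scores above 10%, or exactly half above 10 with the replicate mean above 10; inconclusive means replicate mean below 10 yet half the replicates above 10; inactive means over half of replicates below 10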;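 further: wells of about 30 µL received 50 nL stock; many hits fall short of the cut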
Beta apoptosis: blocks beta cell apoptosis; INS-1E cytokine-induced death, ATP luminescence, 48 h; percent of positive-control rescue, neutral wells zero; protection from apoptosis, % (test concentration not listed); 300,000 tested, 0.8% active;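 active means all replicates at 75% or more, or half of them and the mean; inconclusive means half reach 75% but not the mean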;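 further: 0% = cytokine-treated negative control wells and 100% = positive control rescue; higher means more ATP so stronger rescue from cytokine killing; wells of about 40 µL received 100 nL stock; the first replicate is given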
UCH37 inh: inhibitors of human deubiquitinating enzyme UCH37; Q9Y5K5; purified proteasome/UCH37, Ub-AMC cleavage fluorescence; inhibition, % (concentration not given with the values); 330,000 tested, 0.33% active; AID 588478;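 active means mean of two replicates above 20%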;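 further: 0% = compound-free wells with enzyme and 100% = wells lacking proteasome; stock transfer was 100 nL into about 20 µL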
Target sequence (Q9Y5K5 whole entry, looked up): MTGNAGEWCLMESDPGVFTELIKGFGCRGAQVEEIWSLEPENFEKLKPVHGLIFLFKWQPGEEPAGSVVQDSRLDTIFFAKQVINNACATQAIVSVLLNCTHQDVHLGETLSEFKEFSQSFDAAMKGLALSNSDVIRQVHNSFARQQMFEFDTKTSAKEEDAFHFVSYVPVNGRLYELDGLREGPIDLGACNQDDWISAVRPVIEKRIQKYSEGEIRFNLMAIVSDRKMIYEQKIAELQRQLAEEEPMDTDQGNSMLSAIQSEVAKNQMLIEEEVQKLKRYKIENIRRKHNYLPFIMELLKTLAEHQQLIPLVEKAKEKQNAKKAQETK
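Material: human UCH37 enzyme supplied as purified proteasome complex / Amount: 0.15 nM proteasome as dispensed / Buffer or medium: pH 7.4 Tris-HCl (50 mM) with ovalbumin, ATP-MgCl2, DTT / Times: preincubation 30 min, reaction 25 min, room temperature / Technique: AMC fluorescence from Ub-AMC cleavage, excitation 355 nm, emission 460 nm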
T cruzi repl: T. cruzi replication inhibition; T. cruzi beta-gal in NIH3T3, luminescence, 90 h; inhibition, % (no concentration beside the values); 300,000 tested, 1.4% active; AID 1885;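 active means mean inhibition across valid replicates above about 55%, limit read from the data; inconclusive means mean below that limit but half or more replicates reach it; inactive means mean below it, under half of replicates reach it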;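 further: signal also drops with host cell toxicity which is not excluded here; 0% = plate median of DMSO wells and 100% = zero luminescence signal; higher percent means less beta-gal luminescence so fewer parasites; stock transfer was 50 nL into about 50 µL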
RanGTP-Imp inh: inhibitors of RanGTP-importin-beta interaction, primary screen, biochemical, FRET, CFP-Ran, YFP-importin-beta, homogeneous | cell-free CFP-Ran/YFP-importin-beta FRET ratio | 300,000 tested, 1.1% active | inhibition, % (test concentration not listed);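 active means most replicates above 15%; inconclusive means exactly half above 15%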;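 further: 0% = DMSO wells and 100% = Ran loaded with GDP instead of GTP; wells of about 40 µL received 100 nL stock; the first replicate is given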
Calb FLC: C. albicans growth modulation with fluconazole; growth inhibition, % (concentration not given with the values); 300,000 tested, 0.57% active; C. albicans CaCi-2 (fluconazole-resistant clinical isolate) + fluconazole, Alamar Blue growth, 48 h;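 active means most replicates above 75%; inconclusive means exactly half above 75%; inactive means most below 75%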;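 further: all wells also contain fluconazole at 8 µg/ml as a sub-toxic cotreatment; 0% = median of DMSO wells and 100% = median of geldanamycin control wells; wells of about 8 µL received 7.5 nL stock; the first replicate is given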
Beta2AR agonist: human beta-2 adrenergic receptor agonism by FAP | P07550 | Am2.2-beta2AR cells, FAP receptor internalization, flow cytometry; reference of the scale not given here | response, % (no concentration beside the values) | 340,000 tested, 0.43% active | AID 504454;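 active means response above a set limit, near 3 SD of response in nonfluorescent compounds, cut at about 42% in these data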;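 further: stock transfer was 100 nL into about 11 µL; a reference agonist was the positive control; negative values mostly stem from fluorescent compounds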
Target sequence (P07550 whole entry, looked up): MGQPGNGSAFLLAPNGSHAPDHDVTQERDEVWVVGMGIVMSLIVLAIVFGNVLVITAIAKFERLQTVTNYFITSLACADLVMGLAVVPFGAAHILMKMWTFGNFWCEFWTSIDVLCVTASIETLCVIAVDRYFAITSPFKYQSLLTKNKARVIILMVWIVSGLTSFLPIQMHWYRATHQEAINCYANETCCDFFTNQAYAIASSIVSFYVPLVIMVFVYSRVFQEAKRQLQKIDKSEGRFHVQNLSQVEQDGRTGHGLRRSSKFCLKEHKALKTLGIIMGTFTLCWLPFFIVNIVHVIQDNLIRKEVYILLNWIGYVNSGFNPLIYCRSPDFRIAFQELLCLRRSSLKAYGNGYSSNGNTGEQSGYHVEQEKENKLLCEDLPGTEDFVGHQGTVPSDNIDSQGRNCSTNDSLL
* = called active by the depositor; i = inactive; ? = inconclusive; / = no result given. An unsorted share of the library. About 4.3% of those tested had a hit in this group.

SMILES | LANA-H2B inh | A1 inh | Beta apoptosis | UCH37 inh | T cruzi repl | RanGTP-Imp inh | Calb FLC | Beta2AR agonist
Cc1ccc(-c2csc(NC(=O)c3cccc(N4C(=O)CCC4=O)c3)n2)o1 | -1.2 | 0.2 | -2.4 | -4.9 | 7.3 | 0.0 | -5.4 | 4.4
Cc1cccc(NC(=O)CSc2nc3nc4c(cc3c(=O)n2-c2ccccc2)CCCC4)c1 | 0.7 | -0.3 | 1.6 | -2.6 | 38.4 | -3.0 | -3.1 | 4.0
CC(C)c1ccc(OCc2nc(-c3ccccn3)no2)c(Br)c1 | -1.6 | -6.4 | -1.1 | 2.6 | 18.6 | 5.0 | -0.6 | -2.1
NC(=O)Nn1c(CCC(=O)O)ccc1-c1ccc(Br)cc1 | -2.6 | 0.0 | -3.2 | -22.4 | -0.4 | 2.0 | -6.1 | -5.1
Cc1ccc(CNC(=O)CN2C(=O)NC(C)(c3cccc(Br)c3)C2=O)cc1 (configuration not stated) | -2.0 | 1.5 | -6.4 | 4.7 | 5.8 | 2.9 | 5.4 | 5.6
COc1cccc(CC(NC(C)=O)C(=O)NC2CCN(c3c(Cc4ccccc4)c(C)nc4ncnn34)CC2)c1 (configuration not stated) | 4.5 | 0.0 | 9.9 | 6.9 | -11.0 | 2.3 | -1.2 | 0.8
O=[N+]([O-])c1cc(/C=N/N2CCCCC2)ccc1Cl | 2.1 | -4.4 | 2.9 | / | 12.6 | -1.7 | 21.5 | -5.7
CC(C)c1c(C(=O)N/N=C/c2ccc(C(F)(F)F)cc2)nnn1-c1nonc1N | -2.5 | 0.1 | 8.5 | / | 17.4 | 2.2 | / | 16.3
CCCc1cnc(N2CCN(C(=S)NC)CC2)nc1 | -9.0 | -1.0 | 0.5 | -3.0 | 7.8 | ? | -9.0 | -3.5
Cc1ccc(-c2csc(=Nc3cccnc3)n2CCCN2CCCC2=O)cc1C | -7.0 | -0.9 | -4.3 | 2.3 | -55.5 | -3.0 | -2.7 | 1.3
COc1ccc(-c2cc(C(F)(F)F)n3nc(N)nc3n2)cc1 | 3.1 | -1.1 | 0.7 | i | -3.8 | 27.0* | 7.1 | -1.6
C[C@H](CO)N1C[C@H](C)[C@@H](CN(C)C(=O)Nc2ccc3c(c2)OCO3)Oc2ccc(NS(=O)(=O)c3cn(C)cn3)cc2C1=O | 5.7 | 0.3 | -0.7 | -0.8 | / | / | / | 2.0
COc1ccccc1C(=O)NCC(=O)NCC1(N2CCCCC2)CCCCC1 | -5.5 | 0.0 | 2.7 | / | -23.5 | 2.2 | -1.1 | -3.8
Cc1ccc(NC(=S)Nc2cc(C)on2)cc1 | 2.2 | -0.2 | -2.5 | -0.5 | -21.2 | 3.7 | -4.7 | -3.5
CSc1nc2ccc(S(=O)(=O)N3CCCCC3)cc2s1 | 5.1 | 0.2 | -4.9 | 1.1 | -12.4 | -1.2 | 45.8 | -8.3
O=C(O)c1nccnc1C(=O)Nc1ccc(Cl)cn1 | -1.4 | -0.4 | -1.5 | 4.6 | 2.9 | 0.5 | -2.1 | -4.8
O=C(COC(=O)/C=C/c1ccc(Br)o1)NC1CCCCC1 | / | 0.4 | 0.7 | 1.0 | / | / | / | -8.3
O=C(COC(=O)CSc1ccc(Br)cc1)NCc1ccco1 | -19.8 | 0.6 | 3.2 | 2.0 | -5.8 | / | -10.3 | -4.5
CCC(CC)C(=O)N(c1ccc(F)cc1)C1C=CS(=O)(=O)C1 (configuration not stated) | -0.2 | 0.1 | -3.7 | 0.4 | -14.2 | -0.9 | 16.3 | 4.3
CC1CCCCN1C(=O)c1cc(Cl)ccc1[N+](=O)[O-] (configuration not stated) | 1.6 | 0.4 | -3.3 | 1.8 | -9.2 | -0.6 | -1.6 | 3.2

Compound profiles, as listed above. Order of screens: LANA-H2B inh	A1 inh	Beta apoptosis	UCH37 inh	T cruzi repl	RanGTP-Imp inh	Calb FLC	Beta2AR agonist
O=C(COC(=O)CSc1ccc(Br)cc1)NCc1ccco1 is listed as -19.8	0.6	3.2	2.0	-5.8	/	-10.3	-4.5
Cc1ccc(-c2csc(NC(=O)c3cccc(N4C(=O)CCC4=O)c3)n2)o1 is listed as -1.2	0.2	-2.4	-4.9	7.3	0.0	-5.4	4.4

Additional compounds:
SMILES | LANA-H2B inh | A1 inh | Beta apoptosis | UCH37 inh | T cruzi repl | RanGTP-Imp inh | Calb FLC | Beta2AR agonist
O=C(CO/N=C/c1ccc(OC(F)F)cc1)NC1CCCCCC1 | -3.4 | -0.3 | -5.1 | / | 2.9 | 1.8 | -8.2 | 10.8
Cn1c(NNC(=O)/C=C/c2ccc3c(c2)OCO3)cc(=O)n(C)c1=O | 2.9 | 0.4 | -12.1 | -37.5 | -4.9 | ? | 2.9 | -4.4
CCc1cccc2c(C#N)cn(CC(=O)NCc3ccco3)c12 | -3.3 | -0.8 | -2.4 | 4.0 | -5.3 | 4.6 | -9.4 | -4.0
COc1cc(C2C(C#N)=C(N)OC3=C2C(=O)CCC3)cc2c1OCO2 (configuration not stated) | 0.0 | -0.1 | / | 0.5 | 5.9 | 3.9 | 5.5 | -10.3
CCOC(=O)/C=C/[C@H]1CCc2cccc(C)c2O1 | 5.3 | 0.8 | -0.3 | 4.9 | / | / | / | -8.0
COc1ccc2ccccc2c1CNCCCN1CCOCC1 | -2.7 | 0.2 | -0.7 | 3.6 | / | / | -12.9 | -1.8
O=C(O)CCn1ccc2cc(S(=O)(=O)N3CCCCCC3)ccc21 | 3.9 | 0.6 | -0.9 | 3.9 | -6.3 | 0.3 | 49.6 | 7.7
Cn1c(=O)c2cc(S(=O)(=O)Nc3ccc4c(c3)OCO4)ccc2n(C)c1=O | -5.1 | 0.1 | 2.1 | 3.8 | 7.6 | 0.2 | ? | 3.2
COc1ccc(Cl)cc1S(=O)(=O)n1ccnc1C(C)C | 2.2 | 0.6 | / | 0.7 | -1.6 | -3.3 | -5.9 | -2.8
Cc1ccccc1C(=NCCCN(C)C)c1ccccc1C | -2.0 | 0.1 | 1.4 | 6.7 | -3.9 | -3.6 | -10.2 | 1.3
Cc1ccc(N(C(=O)CNC(=O)c2ccco2)C(C(=O)NC2CCCC2)c2cccnc2)cc1F (configuration not stated) | 5.2 | 0.3 | -5.4 | 4.6 | 2.2 | 0.9 | 2.7 | -6.4
Cc1nc(Nc2ccc(Cl)cc2)c2oc3ccccc3c2n1 | 4.3 | -0.2 | 11.7 | -121.3 | 3.7 | 3.7 | 7.6 | -0.3
O=C(c1ccc(Br)s1)N1CCN(Cc2ccc3c(c2)OCO3)CC1 | 2.8 | 0.5 | 1.2 | 2.0 | 1.7 | 2.5 | -33.1 | -8.9
Nc1nnc(Cc2cccc(Br)c2)s1 | 0.0 | -0.3 | -4.0 | -0.5 | -8.4 | -0.7 | -5.6 | 1.2
CCOc1ccc(CCNC(=O)c2ccc3c(=O)n4c(nc3c2)CCCCC4)cc1 | 2.3 | 0.0 | 1.8 | 3.5 | 4.2 | -0.6 | 3.4 | -5.9
CN1CCN(c2ccc(NC(=O)c3ccc(-c4ccc(Cl)cc4)o3)cc2)CC1 | 65.6* | 0.5 | 26.3 | 5.7 | 49.2 | -0.1 | 54.4 | 17.6
NS(=O)(=O)c1ccc(N/N=C/c2ccc3c(c2)OCO3)c([N+](=O)[O-])c1 | -0.9 | -3.7 | -7.7 | / | 1.8 | 1.4 | -1.2 | 7.5
c1ccc(COc2ccc(OCCCN3CCCCC3)cc2)cc1 | 2.8 | 1.0 | / | -0.1 | -2.4 | -1.0 | / | -6.8
CCN(CC(=O)NC(C)C)Cc1nc2sc3c(c2c(=O)[nH]1)CCC3 | 1.0 | 0.1 | -3.1 | / | -12.2 | -0.9 | 21.5 | 1.0
CCOC(=O)N1CCN(S(=O)(=O)c2c(C)nn(C)c2C)CC1 | 0.2 | 0.6 | -3.1 | 0.7 | -4.6 | 3.2 | -4.7 | 3.5
Cc1ccc(C(=O)Nc2ccc(CN3CCS(=O)(=O)CC3)cc2)cc1C | 11.2 | 0.3 | -2.2 | 4.4 | -1.7 | -3.3 | -6.4 | 4.8
CCc1sc(C(=O)Nc2ccc3c(c2)OCCO3)cc1Br | -2.3 | 0.8 | 4.5 | / | 3.0 | 5.2 | 40.6 | 8.8
COc1ccc(C(=O)NCCc2c[nH]c3ccccc23)cc1S(=O)(=O)N1CCCCC1C (configuration not stated) | -6.4 | 0.2 | -2.9 | 0.2 | / | / | / | -1.6
CN(C(=O)CC1C(=O)NCCN1Cc1cccc(F)c1F)C1CC(C)(C)NC(C)(C)C1 (configuration not stated) | -0.6 | 0.2 | -5.3 | 1.2 | -15.8 | -1.0 | 25.4 | 6.0
O=C(Cc1nnc(NC(=O)c2ccccc2)s1)N/N=C/c1cccc(O)c1 | 0.7 | -0.1 | -5.2 | / | -14.1 | 1.9 | -0.8 | 3.1
CCOC(=O)c1nc(SC)n(C)c1C(=O)OCC | 3.6 | 0.2 | 1.4 | 0.3 | -6.4 | -8.1 | -5.1 | -4.5
CCCC(=O)N=c1sc2c(OC)ccc(OC)c2n1C | -0.8 | -0.3 | -6.8 | -1.9 | 8.6 | -2.8 | -9.7 | 3.6
COC(=O)c1sccc1-c1ccc(C(=O)Nc2cccc(Cl)c2)o1 | -5.2 | 1.2 | -2.1 | -95.9 | -6.1 | -5.2 | -2.8 | 6.6
COc1ccc(CC(=O)n2c(CC#N)nc3ccccc32)cc1OC | 5.6 | 0.0 | 1.4 | -0.8 | -2.0 | 2.6 | -21.2 | -8.7
CCOc1ccccc1C(=O)NCC(=O)NNC(=O)CN(C)S(=O)(=O)c1ccc(Cl)cc1 | -2.8 | 1.2 | -0.2 | 2.7 | -2.4 | 3.2 | 0.2 | 4.2
COc1cc(-c2nc3ccc(C)cn3c2Nc2ccc3c(c2)OCCO3)ccc1O | -4.1 | 0.8 | 4.6 | / | 10.2 | 3.0 | 44.8 | -2.3
Cc1ccc(C)c(N2CCN(C(=O)CCCn3c(=S)[nH]c4cc5c(cc4c3=O)OCO5)CC2)c1 | 3.9 | 0.3 | 0.9 | 2.5 | 44.5 | 1.7 | ? | 14.6
Cc1ncc([N+](=O)[O-])n1CCOC(=O)NC(NCc1cccnc1)C(Cl)(Cl)Cl (configuration not stated) | -1.1 | -0.4 | -10.3 | 4.9 | -8.4 | -0.2 | -9.1 | 2.1
Cc1nc2ccc(S(=O)(=O)NC(C(=O)Nc3nc4ccc(Cl)cc4s3)C(C)C)cc2s1 (configuration not stated) | -5.1 | -0.3 | / | 5.3 | 35.8 | -0.2 | -5.2 | 2.0
Cn1c(Cn2c(=O)sc3ccccc32)nnc1SCc1ccccn1 | 5.3 | 0.9 | -0.5 | 0.1 | 18.3 | 0.8 | 2.4 | -2.9
CSc1nnc(CNS(=O)(=O)c2ccc(Cl)cc2)n1C | 4.8 | -0.6 | -0.5 | 1.7 | -28.5 | 1.0 | -2.9 | 4.5
O=C(Nc1ccc(Cl)cc1)c1cccs1 | -5.2 | -2.5 | 5.6 | 2.2 | -8.3 | 5.0 | -37.0 | -9.4
